D2 ag: activates the human D2 dopamine receptor; 0.084% of 360,000 active; P14416; DiscoveRx PathHunter D2 beta-arrestin, luminescence, 90 min; 100% = 57 uM dopamine signal; activation, % (no concentration beside the values); AID 624465; in the data active = activation above about 40%; inconclusive = about 15% to 40%; inactive = below about 15%; further: compound concentration not given in the record; the text of the record calls up to 30% inactive
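DiscoveRx PathHunter D2 beta-arrestin cells (2,100/well) attached overnight, then compound-stimulated 90 min at 37 C in HBSS/10 mM HEPES/0.1% Tween-20 buffer; beta-galactosidase complementation read by luminescence after 1 h at ambient temperature. Dopamine 57 uM final (EC100) as control.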
TRPML1 inh: blocks the human TRPML1 channel; Q9GZU1; TRPML1-inducible cells, Ca2+ dye fluorescence, FDSS; active compounds read low; inhibition of EC80 agonist-evoked calcium signal; activity change, negative = inhibition, % (test concentration not listed); 0.02% of 390,000 active; in the data active means activity change below about -50%; inconclusive means about -30% to -50%; inactive means above about -30%;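 further: stimulus is agonist 54-4 at its EC80 concentration; on the % scale 0 is the no-effect control and ±100 the full control effect; compound concentration not given in the record; the text of the record puts the active cut at -80%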
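Tet-induced TRPML1-DL cells loaded with Ca8 no-wash calcium dye were read kinetically on FDSS. Compound addition was followed by EC80 agonist 54-4 (4 uM final); inhibition was read over 110 s.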
PINK1 expr mod: modulators of PINK1 expression | PINK1 immunofluorescence, high-content cytometry, 24 h | Potency, µM (titrated, usually from 76.6 µM), for the others: top-dose activation (PINK1 increase), most hits filed as activators | 0.2% of 410,000 active | AID 624263; active = well fitted activation curve with a large enough effect; inconclusive = small, poorly fitted or top-dose-only effect; inactive = flat fitted curve, though single readings scatter; cell line not stated here;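 further: potency means the concentration at half of the fitted maximal effect; % of control where 0% means no effect; nearly all actives have a fitted effect of over 65% in size; a mitochondrial uncoupler was the plate control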
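Decision-based qHTS: stable cells, 24 h exposure to five compound concentrations, CCCP as control. Fixed cells stained for PINK1 plus nuclear, mitochondrial and cell markers, cytometer read.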
Six1-Eya2 inh: inhibitors of human Six1/Eya2 interaction | 0.56% of 360,000 active | activity change, % (no concentration beside the values) | AlphaScreen GST-Six1/His-Eya2 binding, biochemical; active compounds read low; control for the full effect not named in the record | Q15475+O00167 | AID 651725; in the data active = activity change below about -65%; inconclusive = about -30% to -65%; inactive = above about -30%; further: on the % scale 0 is the no-effect control and ±100 the full control effect
Target sequence (O00167 whole entry, looked up): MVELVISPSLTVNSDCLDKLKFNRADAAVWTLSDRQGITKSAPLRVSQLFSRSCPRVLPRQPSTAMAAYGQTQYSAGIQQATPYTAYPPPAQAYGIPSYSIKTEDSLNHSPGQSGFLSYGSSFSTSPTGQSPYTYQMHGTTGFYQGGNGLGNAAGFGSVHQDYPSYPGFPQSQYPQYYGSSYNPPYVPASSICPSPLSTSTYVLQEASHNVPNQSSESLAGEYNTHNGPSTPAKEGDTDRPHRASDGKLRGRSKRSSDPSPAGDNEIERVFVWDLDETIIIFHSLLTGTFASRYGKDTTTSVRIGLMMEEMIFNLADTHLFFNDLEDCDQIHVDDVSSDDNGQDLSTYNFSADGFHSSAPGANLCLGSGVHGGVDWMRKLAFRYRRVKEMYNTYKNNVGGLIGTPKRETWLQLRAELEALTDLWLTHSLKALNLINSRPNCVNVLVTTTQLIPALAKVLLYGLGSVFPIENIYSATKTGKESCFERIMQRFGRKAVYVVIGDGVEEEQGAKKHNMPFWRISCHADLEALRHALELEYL
Target sequence (Q15475 whole entry, looked up): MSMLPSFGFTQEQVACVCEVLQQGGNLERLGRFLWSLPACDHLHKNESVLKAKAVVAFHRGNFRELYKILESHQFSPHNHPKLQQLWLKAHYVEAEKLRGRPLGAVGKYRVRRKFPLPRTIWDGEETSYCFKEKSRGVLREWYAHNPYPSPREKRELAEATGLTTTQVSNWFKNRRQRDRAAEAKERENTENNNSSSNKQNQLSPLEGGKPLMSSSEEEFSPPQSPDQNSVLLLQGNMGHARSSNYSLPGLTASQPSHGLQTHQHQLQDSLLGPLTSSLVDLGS
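Compounds are tested against tagged Six1 and Eya2 proteins bridged by glutathione donor and nickel acceptor beads; after a one-hour incubation at 37 °C without light, AlphaScreen emission is recorded.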
TRPML1 ag: agonists of human TRPML1 channel; AID 624414; activation, % (concentration not given with the values); TRPML1-expressing cells, Ca2+ dye fluorescence, FDSS; host cell line not named in the record; reference of the full effect not given here; 0.12% of 410,000 active; in the data active = activation above about 50%; inconclusive = about 30% to 50%; inactive = below about 30%; further: 0% is about no effect; the text of the record puts the active cut at 80%
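Agonist activity was taken from a 110 s kinetic Ca2+ dye read on the FDSS after pinning compounds onto TRPML1-DL cells. The cells were seeded at 1,500/well with Tet inducer, incubated about 16 h, then dye-loaded at room temperature.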
CtBP-E1A inh: inhibitors of CtBP/E1A interaction; AlphaScreen GST-E1A/His-CtBP binding, 1536-well; active compounds read low; control for the full effect not named in the record; activity change, % (concentration not given with the values); 0.49% of 340,000 active; in the data active means activity change below about -65%; inconclusive means about -30% to -65%; inactive means above about -30%; further: on the % scale 0 is the no-effect control and ±100 the full control effect
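In 5 uL wells, 23 nL compound meets equimolar GST-E1A and His-CtBP (5X stock 125 nM each) for 2 h, 37 °C. Beads (5X, 50 ug/mL) then 1 h, 37 °C, dark.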
* = called active by the depositor; ? = inconclusive; . = not tested or not shown; [ ] = remark or other dose.

smiles,TRPML1 inh,CtBP-E1A inh,D2 ag,PINK1 expr mod,Six1-Eya2 inh,TRPML1 ag
COc1ccc(S(=O)(=O)Nc2cccnc2)cc1OC,-14,3,2.4,1.0%,3,0.3
Cc1ccc(N2C(=O)c3n[nH]c(C)c3C2c2ccco2)cc1 (stereo unspecified),-1,-3,-4.6,-1.9%,-1,0.9
Cc1ccc(CS(=O)Cc2ccc(C(=O)N3CCN(C4CCCCC4)CC3)o2)cc1 (stereo unspecified),-20,-16,0.2,0.2%,1,0.1
Cc1csc(NC(=O)CSc2nccn2C)n1,9,-21,-3.0,-0.2%,0,0.4
Cc1nn(C)cc1CNCc1c(C(=O)N2CCCCC2)nc2c(C)cccn12,10,1,-5.6,0.2%,-4,-0.5
CCCNC(=O)N1CCC(c2nc3ccccc3s2)CC1,-11,.,4.0,0.3%,-1,0.4
COc1ccc(CCNC(=O)C2CCN(S(C)(=O)=O)CC2)cc1,-10,11,2.6,.,4,0.8
COCCNC(=S)N/N=C/c1ccccc1C(=O)O,-10,1,-1.8,1.4%,4,-0.5
Cc1c(C)c2ccc(OCC(=O)N3CCN(c4cccc(Cl)c4)CC3)cc2oc1=O,11,.,-0.8,2.8%,3,5.0
Cc1ccc(C)n1-c1nnc(N2CCCC(C(=O)NCc3ccccc3)C2)s1 (stereo unspecified),8,.,.,3.4%,.,0.3
COc1ccc(CNC(=O)CCn2c(=O)oc3ccccc32)c(OC)c1,-2,.,-6.3,1.4%,0,0.6
COc1ccc(-c2nc3ccccc3o2)cc1NC(=O)c1ccc(-c2cccc(Cl)c2C)o1,4,.,.,0.3%,.,-0.5
COc1ccc(C)cc1NS(=O)(=O)c1c(C)nc2sc(C)cn2c1=O,15,.,.,0.8%,.,0.9
O=C(CCSCc1ccc(Cl)cc1)NCc1ccc(F)cc1Cl,-3,.,.,0.3%,.,-0.5
CC(=O)Nc1ccc(S(=O)(=O)Nc2cccc(-c3ccc(N4CCCCCC4)nn3)c2)cc1,10,.,.,0.0%,.,-0.6
CCCS(=O)(=O)NC(=O)C1(C)CCN(C(=O)Cc2ccc(F)cc2)C1 (stereo unspecified),.,1,-1.1,0.7%,2,-0.6
CC1=C(c2ccc(Cl)cc2)S(=O)(=O)N=C1N1CCC(C(=O)NCc2ccccc2F)CC1,23,.,.,1.6%,.,2.9
CCC(C)NC(=O)[C@@H]1CSC2c3ccccc3C(=O)N21 (stereo partly specified),-1,10,-1.6,0.0%,3,-1.6
CC1CCN(C(=O)CN2C(=O)NC3(CCC(C)CC3)C2=O)CC1 (stereo unspecified),6,4,-6.5,-1.6%,0,-0.5
Cc1nn(C)c(C)c1NC(=S)Nc1ccc(S(=O)(=O)Nc2ncccn2)cc1,32,-1,0.1,0.6%,-1,0.0
O=S(=O)(c1ccc(-c2cc(C(F)(F)F)on2)s1)N1CCN(c2cccc(Cl)c2)CC1,-14,.,.,-0.2%,.,1.3
O=C(CCCc1cccs1)Nc1nc(-c2ccc(F)cc2)cs1,-7,1,6.8,18%,4,-0.2
Cn1c(=O)oc2cc(S(=O)(=O)N3CCC(C(=O)N4CCc5ccccc5C4)CC3)ccc21,-16,-1,-0.5,5.1%,-8,-0.6
CCOc1ccc(CN2CCCC(CO)(Cc3ccc(F)cc3)C2)cc1 (stereo unspecified),46,0,-0.9,5.8%,5,0.8
Cc1oc(C)c2c(=O)cc(-c3ccc4c(c3)OCO4)cc(OC(=O)c3cccc(Cl)c3)c12,-4,.,.,-0.2%,.,0.6
CC(C)(C)c1ccccc1NC(=O)Nc1nc(C(N)Cc2ccc(F)cc2)cs1 (stereo unspecified),.,-13,9.9,-0.9%,-13,-0.6
Cc1ccc(CNC(=O)CS(=O)(=O)Cc2nc(-c3ccccc3C)oc2C)cc1,12,.,.,0.3%,.,-0.3
COC(=O)c1cc(Br)c(=O)n(CCc2ccc(F)cc2)c1,13,3,-2.6,-2.7%,11,0.0
Cc1c(C)c(C)c(S(=O)(=O)Nc2ccc3[nH]c(=O)[nH]c3c2)c(C)c1C,1,-12,0.4,11%,3,0.2
Cc1ccc(NC(=O)CN2C(=O)S/C(=C\c3cc(C)n(-c4cccc(C(=O)O)c4)c3C)C2=O)cc1,10,1,-5.6,0.3%,0,-0.2
CCCCCCNc1c(C(=O)OCC)c(=O)[nH]c2ccccc12,28,-2,-0.6,0.0%,-1,2.2
COc1ccc(NC(=O)COC(=O)[C@@H]2CCCN2S(=O)(=O)c2ccccc2F)c(OC)c1,7,5,-0.7,-1.9%,0,-1.0
Cc1ccc(-c2n[nH]c(=S)c3ccccc23)cc1S(=O)(=O)NCC1CCCO1 (stereo unspecified),-25,-16,-2.2,1.3%,-12,0.4
Cc1c(C(=O)NC2CCCCC2)oc2ccc(F)cc12,1,11,-1.4,0.6%,2,2.2
CCn1c(SCC(=O)Nc2cc(C)on2)nc2sc3c(c2c1=O)CCCC3,6,4,-2.4,.,-1,-0.1
CCN(CC)S(=O)(=O)c1ccc2c(c1)N(CC(=O)Nc1ccc(F)cc1)C(=O)CO2,-12,.,.,1.6%,.,-0.3
CCn1cc(S(=O)(=O)c2cccc(C)c2)c(=O)c2cc(F)c(N3CCN(C)CC3)cc21,38,1,-1.7,3.1%,0,0.0
N#Cc1ccc(S(=O)(=O)NC[C@H]2O[C@@H](n3cnc4c(N)ncnc43)[C@H](O)[C@@H]2O)cc1,-9,1,-3.8,0.2%,6,-0.2
CCOC(=O)c1nnc(-c2ccc(C)cc2)nc1N1CCSCC1,14,-17,-2.6,-0.6%,-1,4.6
CN(C(=O)COC(=O)c1cnc(Cl)c(Cl)c1)C1CCCCC1,11,-11,-4.0,-2.2%,-6,0.1

The closing 3 compounds of the part above are carried over, then new ones follow.
smiles,TRPML1 inh,CtBP-E1A inh,D2 ag,PINK1 expr mod,Six1-Eya2 inh,TRPML1 ag
N#Cc1ccc(S(=O)(=O)NC[C@H]2O[C@@H](n3cnc4c(N)ncnc43)[C@H](O)[C@@H]2O)cc1,-9,1,-3.8,0.2%,6,-0.2
CCOC(=O)c1nnc(-c2ccc(C)cc2)nc1N1CCSCC1,14,-17,-2.6,-0.6%,-1,4.6
CN(C(=O)COC(=O)c1cnc(Cl)c(Cl)c1)C1CCCCC1,11,-11,-4.0,-2.2%,-6,0.1
Nc1nc(Nc2cccc(C(F)(F)F)c2)nc(C(F)(F)F)n1,-6,4,-1.2,-0.1%,7,2.9
CCCCOc1ccc(C2=NC(c3cccs3)=Nc3ccc(OC)cc3N2)cc1,-21,.,.,2.9%,.,2.7
COc1ccc(S(=O)(=O)NCCC(=O)NCc2cccs2)cc1,-11,1,-2.7,12%[38.3 µM],25,0.3
O=C(Nc1ccccc1C(F)(F)F)C1CCN(C(=O)Cc2ccccc2)CC1,6,4,0.2,0.2%,9,-0.5
O=C(COc1ncnc2ccccc12)Nc1ccc(Cl)c(S(=O)(=O)N2CCOCC2)c1,-3,-3,2.3,3.1%,3,1.8
Nc1nc(SCC(=O)C23CC4CC(CC(C4)C2)C3)n[nH]1,35,2,-5.5,-0.6%,-3,0.0
COc1ccc(CNS(=O)(=O)c2ccc(N3CCCCS3(=O)=O)cc2)cc1,-17,.,.,0.8%,.,-1.0
COCCn1c(C)cc(C(=O)COC(=O)c2cccnc2SC)c1C,-6,6,0.1,3.9%,-15,0.4
O=C(Nc1ccc(OC(F)F)c(Cl)c1)c1cccc(OC(F)F)c1,15,11,-0.6,7.6%[38.3 µM],9,3.3
O=S(=O)(c1ccccc1)N(CC(O)COc1ccccc1)c1ccccc1 (stereo unspecified),0,6,0.7,3.4%,7,1.1
COc1ccc(C(CNC(=O)CCNC(=O)c2ccccc2OC)N2CCCC2)cc1 (stereo unspecified),6,7,-5.3,1.8%,-4,0.1
CCCN(Cc1nnc(-c2ccccc2Cl)o1)C(=O)COc1ccc(Cl)cc1,-21,-3,1.6,1.3%,4,5.9
Cc1nn(-c2ccccc2)c(Cl)c1/C=N/NC(=O)CCNc1n[nH]c(=O)[nH]c1=O,13,1,-2.0,3.8%,-12,-0.8
Oc1ccc(-c2c(C3=CCCCC3)sc3ccccc23)cc1,7,2,-0.9,14%,-4,-1.3
Cn1nc(C(=O)Nc2c(-c3ccccc3)nc3sccn23)c2ccccc2c1=O,0,0,-0.1,12%,-4,3.3
Cc1cccc(OCC(=O)Nc2cccc3cccnc23)c1C,-5,.,.,?,.,3.8
CCC1(C(=O)OC)NC(c2ccco2)C2C(=O)N(c3ccccc3)C(=O)C21 (stereo unspecified),-7,-2,-2.0,0.9%,1,2.2
O=C(CC1C(=O)NCCN1Cc1cccc(F)c1)NCCCCCN1CCOCC1 (stereo unspecified),-15,-1,-0.1,-1.6%,-1,0.6
CCOCCCNCC(O)c1ccccc1 (stereo unspecified),11,3,0.1,1.5%,6,0.6
Cc1ccc2[nH]c(=O)c(CN(Cc3ccccc3Cl)C(=O)N3CCOCC3)cc2c1,-11,1,-1.3,-1.3%,-2,0.2
COC(=O)c1sc2ccccc2c1NC(=O)c1ccc(S(=O)(=O)N2CC(C)CC(C)C2)cc1 (stereo unspecified),-2,11,-1.2,7.7%,0,-0.5
Cc1cc(C(O)c2ncc(-c3ccc(Cl)cc3)[nH]2)ccc1F (stereo unspecified),.,-16,-0.9,22%,-9,-1.1
CCOC(=O)c1ccc(CNC(=O)CSc2nc(NC(=O)c3ccccc3)c3c(C)c(C)oc3n2)cc1,-10,25,-2.0,3.2%[38.3 µM],4,0.7
Nc1ccc(Oc2ccc(F)cc2)nc1,-5,3,-1.2,-2.0%,6,2.0
CCOC(=O)c1cnc2c(C)c(-c3ccccc3)[nH]n2c1=O,-7,3,-0.8,-0.9%,2,0.7
O=C(OCn1nnc2ccccc2c1=O)c1cc(-c2ccccc2Cl)nc2ccccc12,-2,5,3.6,0.0%,-5,-0.6
CN(CC(=O)Nc1cccc(F)c1)C(=O)/C=C/c1ccc2ccccc2n1,68,4,1.5,4.1%,-2,0.2
CC1(C)CC(=O)C/C(=N\NC(=O)Cc2ccccc2)C1,-23,2,-2.1,-0.1%,10,0.5
CC1CCN(C(=S)NC(=O)C2CCCCC2)CC1,9,-5,-1.2,0.5%,-6,0.5
CCCCS(=O)(=O)/C=C\C1C2C=CC(C2)C1S(=O)(=O)CCCC (stereo unspecified),0,-2,-1.6,1.4%,6,0.0
Cc1cc(N2CCOCC2)ncc1[N+](=O)[O-],10,-1,-1.1,-0.1%,2,-0.1
CCOc1ccc(CCNC(=O)c2c(C)oc3ncnc(N4CCOCC4)c23)cc1,-5,.,.,?,.,0.2
Cc1nn(C)c2c1c(C(F)(F)F)cc(=O)n2CC(=O)NCCC(C)C,-16,.,.,2.2%,.,1.2
CSc1nc(N2CCOCC2)nc2ccc(C)cc12,-8,.,-0.4,1.1%,55,1.4

Assay outcomes as filed in PubChem.
